S aureus helic: inhibitors of S. aureus replicative helicase, primary screen, biochemical, fluorescence unwinding readout | replicative DNA helicase (DnaC/DnaB), Staphylococcus aureus | purified S. aureus helicase, fluorescence unwinding assay; about half of the hits fall short of the stated cut | inhibition, %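 (tested at about 80 µM)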 | 0.05% of 120,000 active | AID 485395, 2010;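 active = both duplicates at 50% or more, or one of them with a favoured structure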;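 also: 0% = mean of negative control wells and 100% = mean of positive control wells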
MgrA-DNA mod: S. aureus MgrA activity modulators, primary screen, biochemical, S. aureus Newman, fluorescence polarization. MgrA-DNA binding. inhibition, %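 (about 10 µg/mL by stock and volumes)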. 0.13% of 84,000 active;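 active = above 50% in either of two replicates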;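 also: 0% = protein plus DNA without compound and 100% = DNA alone without protein; higher means less MgrA bound to DNA so lower polarization; one replicate is shown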
* marks the source's active call; other numbers are inactive results; / = not tested or not shown; & = joins results of further samples. Only part of the results is shown (hit frequency here may not be typical).

The line under a structure holds: S aureus helic | MgrA-DNA mod
OC[C@H]1O[C@@H](n2cnc3cc(Cl)c(Cl)cc32)C(O)[C@H]1O (stereo not given in full)
    / | 3.4
Clc1ccc(COC(Cn2ccnc2)c2ccc(Cl)cc2Cl)c(Cl)c1 (stereo not given)
    / | -0.3&-1.2
OC1(C#CCN2CCCC[C@H]2c2cccnc2)CCCCC1
    -10 | /
COC(=O)CC1(CC(=O)OC)C(=O)N(C)C(=O)N(C)C1=O
    5 | -6.0
CCc1ccc(NC2=NCCS2)cc1
    / | -0.7
CC(CCc1ccccc1)NC(C)C(O)c1ccc(O)cc1 (stereo not given)
    / | 5.2
OCC12COC3c4ccccc4C(OC1)N32 (stereo not given)
    / | 3.3
CC1[C@H](C)OC(=O)CC(O)CC(O)CC(O)CCC(O)C(O)C[C@]2(O)CC(O)C(C(=O)O)C(CC(OC3O[C@H](C)[C@@H](O)[C@H](N)[C@@H]3O)/C=C/C=C/C=C/C=C/CC/C=C/C=C/[C@H](C)[C@H]1O)O2 (stereo not given in full)
    / | 3.0
CN1C(=O)C(=Cc2ccc(O)cc2)C(=O)N(C)C1=O
    8 | /
CC(c1ccccc1)n1cncc1C(=O)O (stereo not given)
    -10 | 0.2
CC(C)OP(C)(=O)C(N)=O (stereo not given)
    -12 | /
N#Cc1c2c(c(O)[nH]c1=O)CN(Cc1ccccc1)CC2
    1 | -0.5
COc1ccc(C2CNC(=O)C2)cc1 (stereo not given)
    -3 | -1.0
Cc1onc(-c2c(Cl)cccc2Cl)c1/C(N)=N/OC(=O)N(C)C
    -29 | /
CCCC[N+]1(C)C2CCC1CC(O)C2 (stereo not given)
    9 | 1.7
COCCNC(=O)Cn1cc(C=C2C(=O)N(C)C(=O)N(C)C2=O)c2ccccc21
    -90 | /
C#CCSc1nc2ccccc2c(=O)n1-c1ccccc1
    -21 | /
O=c1c2ccccc2nc(C(F)(F)F)n1-c1ccccc1
    10 | -0.2
Cc1cc(Cl)nc(N)n1
    2 | /
O=C(Nc1ccc(Br)cc1C(=O)c1ccccc1)c1cc2cc([N+](=O)[O-])ccc2s1
    / | -0.9

6 structures out of the list, sorted by formula weight, high to low:
The line under a structure holds: S aureus helic | MgrA-DNA mod
CC1[C@H](C)OC(=O)CC(O)CC(O)CC(O)CCC(O)C(O)C[C@]2(O)CC(O)C(C(=O)O)C(CC(OC3O[C@H](C)[C@@H](O)[C@H](N)[C@@H]3O)/C=C/C=C/C=C/C=C/CC/C=C/C=C/[C@H](C)[C@H]1O)O2 (stereo not given in full)
    / | 3.0
O=C(Nc1ccc(Br)cc1C(=O)c1ccccc1)c1cc2cc([N+](=O)[O-])ccc2s1
    / | -0.9
COCCNC(=O)Cn1cc(C=C2C(=O)N(C)C(=O)N(C)C2=O)c2ccccc21
    -90 | /
C#CCSc1nc2ccccc2c(=O)n1-c1ccccc1
    -21 | /
CCc1ccc(NC2=NCCS2)cc1
    / | -0.7
Cc1cc(Cl)nc(N)n1
    2 | /

More results follow:
The line under a structure holds: S aureus helic | MgrA-DNA mod
FC(F)=C(F)CCSc1ncn[nH]1
    / | -0.8
C1=C(c2ccccc2)CCN(Cc2nnc(-c3ccc4c(c3)OCO4)o2)C1
    -36 | /
C1CCc2nnc(CCN3CCOCC3)n2CC1
    -4 | -0.8
CCC1(CC)C(=O)NC(=S)N(C)C1=O
    12 | 0.8
Nc1ccc(Cl)c(C(F)(F)F)c1
    23 | /
O=C(c1ccccc1)N1CC2CC(C1)c1cccc(=O)n1C2 (stereo not given)
    6 | 1.4
N=c1sccn1Cc1ccccc1
    -5 | /
CCCC(=O)c1cc(F)c(N2CCN(C)CC2)cc1C
    2 | -0.3
C=C(C)[C@@H]1[C@H]2OC(=O)[C@@H]1[C@]1(O)C[C@H]3O[C@]34C(=O)OC2[C@]14C (stereo not given in full)
    / | 4.1
CCN1CCN(Cc2csc(C)c2C)CC1
    -1 | -1.0
CCOC(=O)C1=C(N)Oc2c(c(C)nn2-c2ccccc2)C12C(=O)N(C)c1ccccc12 (stereo not given)
    9 | 1.1
COC(=O)c1ccccc1NC(C)=O
    / | -2.0
CCC(=O)N1N=C2C3CCN(CC3)C2C1c1ccccc1 (stereo not given)
    13 | /
CC1=CC(=O)C2=C(C)C[C@H](O)[C@@H]3[C@H](OC(=O)[C@@H]3C)[C@@H]12
    -13 | /
CC(C)n1cc(C(=O)O)cn1
    16 | -1.7
NCCc1nnc2ccccn12
    8 | /
CCCC[C@H]1C(=O)O[C@H](C)[C@H](NC(=O)c2cccc(NC=O)c2OC)C(=O)O[C@@H](C)[C@@H]1OC(=O)CC(C)C
    / | 3.0
CN(C)CC(O)c1ccc2cc[nH]c2c1 (stereo not given)
    0 | 8.6
O=C(CCl)NCc1ccccc1
    18 | 6.5
CC(N)Cn1cccn1 (stereo not given)
    9 | -1.1
Cc1ccc2c(c1)C1CN(C)CCC1N2C(=O)c1cccs1 (stereo not given)
    -1 | /
CCN(CC)c1ccc(CN(C)CCc2ccc(OC)c(OC)c2)cc1
    4 | -3.0
COc1cccc(/C=C/[N+](=O)[O-])c1OC
    / | 4.8
CC(C)C(=O)OCC1CCCN2CCCCC12 (stereo not given)
    2 | -3.7
Cc1ccn2c(CN3CCNCC3)c(C)nc2c1
    -5 | /
CN(C)C(=O)Oc1noc2ccc(Cl)cc12
    / | 0.6
CN1C2CCC1CC(=NO)C2
    / | -2.9&0.0
O=C1OCCC1NC1=NCCC1 (stereo not given)
    -14 | /
O=C1CCO1
    / | 2.8
CN(CC1COc2ccccc2O1)c1nc(-c2cccnc2)nc2ccccc12 (stereo not given)
    -2 | /
C=CC1(C)OC(=O)N(c2cc(Cl)cc(Cl)c2)C1=O (stereo not given)
    -20 | 1.0
Brc1ccc(C2N3CCCN23)cc1 (stereo not given)
    25 | /
CCC1=C2CCC3C(CCC4(C)C3CCC4(C)O)C2(C)CCC1=O (stereo not given)
    / | -1.4
CC(=O)Nc1ccc(C#N)c(C(F)(F)F)c1
    / | -2.0
CCOC(=O)c1c(-n2c(C)cc(/C=C3/C(=O)NC(=O)N(CC)C3=O)c2C)sc2c1CCCC2
    7 | 2.0
CN1CC[C@@]2(C)c3cc(O)ccc3N(C)C12 (stereo not given in full)
    / | 0.4
CCOC(=O)c1ccc(-n2c(C)cc(C=C3C(=O)N(C)C(=O)N(C)C3=O)c2C)cc1
    / | 3.6
CC1(O)C[C@@]23C[C@@H](O)[C@@]4(O)[C@@H](C[C@H](O)C4(C)C)[C@](C)(O)[C@@H]2CCC1[C@H]3O (stereo not given in full)
    / | 1.3
CCOC(=O)[C@@H]1[C@@H]2NC(=O)N[C@@]1(C)Oc1ccccc12
    -2 | -3.3
CCOc1ccc(C(CN)CC(=O)O)cc1OCC (stereo not given)
    4 | /
N#CC(C#N)=Cc1ccc([N+](=O)[O-])c(O)c1
    / | -0.8
CC(NC(=O)Oc1ccccc1)C(c1cccs1)N1CCOCC1 (stereo not given)
    -8 | /
CCN(CC)C(=O)c1ccc(NC(=O)CSC(C)(C)C)cc1
    -22 | /
COc1cc2c(cc1O)C1Cc3ccc(OC)c(O)c3CN1CC2 (stereo not given)
    / | -0.3
CC(C)Nc1nc(N2CCCC2)nc(N2CC3CC(C2)c2cccc(=O)n2C3)n1 (stereo not given)
    8 | -2.0
CCOC(=O)C1=C(C)NC(C)=C2C(=O)Oc3ccccc3C12 (stereo not given)
    4 | 1.6
CN1CCC(N(C)CC2=CCC3CC2C3(C)C)CC1 (stereo not given)
    2 | 0.5
CCOC(=O)C1C(=O)NC23CCCCC2C1c1cc(OC)ccc1O3 (stereo not given)
    8 | -2.2
c1cncc(CNC2=NCCC2)c1
    -9 | /
CCc1ccccc1N1C(=O)CC(=O)NC1=S
    -12 | /
O=C(c1ccccc1)c1cc(Br)ccc1NC(=O)C1CC1
    1 | /
O=C(O)c1ccc(C2NCc3ccccc3-n3cccc32)cc1 (stereo not given)
    12 | /
CCOC(=O)C1(c2ccccc2)CCN(C(=O)c2ccccc2O)CC1
    2 | -1.9
c1ccc(NC2=NCCS2)cc1
    22 | /
N#CCN1CCN(c2cccc(Cl)c2)CC1
    / | 0.2
CCc1ccc(NC(=O)N(Cc2ccco2)C2CCN(Cc3ccccc3)CC2)cc1
    -11 | 0.6
CCOc1cc(C=C2C(=O)N(C)C(=S)N(C)C2=O)ccc1OC(C)C(=O)O (stereo not given)
    4 | 20
CN1CCC2(CC1)CC(NC=O)c1ccccc1O2 (stereo not given)
    0 | -1.6
O=C(NCC1(N2CCCCC2)CCCCC1)c1ccc2c(=O)n3c(nc2c1)CCCCC3
    1 | /
NC1=C(C(=O)OCc2ccccc2)C2(C(=O)Nc3ccc(Br)cc32)C2=C(O1)C(=O)CCC2 (stereo not given)
    8 | -2.2

The listing continues:
The line under a structure holds: S aureus helic | MgrA-DNA mod
CN(C)P(=NC(=S)c1cccn1C)(N(C)C)N(C)C
    -6 | /
C=C(C)Cc1c(C)nc(SCC(=O)C(C)(C)C)nc1OC(=O)N(C)C
    4 | /
O=C1C=C2C(=CCOC2O)O1 (stereo not given)
    / | 3.0
O=C(O)C1C2CCC(O2)C1C(=O)N1CCN(C/C=C/c2ccccc2)CC1 (stereo not given)
    7 | -0.3
CCCCCCCCCCCCCCCC(=O)OC[C@H](COP(=O)([O-])OCC[N+](C)(C)C)OC(C)=O
    / | 0.9
CCC1(c2ccc(N)cc2)CCC(=O)NC1=O (stereo not given)
    / | 4.5&3.6
C[C@@]12C[C@H](O)CCN1CCc1ccccc12
    -1 | /
CO[C@H]1[C@H](O)[C@@H](O[C@H]2CC[C@]3(C=O)C4CC[C@]5(C)[C@@H](C6=CC(=O)OC6)CC[C@]5(O)C4CC[C@@H]3C2)O[C@@H](C)[C@@H]1O (stereo not given in full)
    / | 2.9
C[C@H]1O[C@H](OC2[C@@H](O)[C@@H](O)C(O)[C@H](O)[C@H]2O)[C@@H](N)C[C@@H]1N=C(N)C(=O)O (stereo not given in full)
    / | 2.2
CCOC(=O)c1c(C)n(Cc2ccccc2)c2ccc(OCC(O)CN3CCN(CCO)CC3)cc12 (stereo not given)
    10 | -9.1
Clc1ccc(C2CC3CCC2N3)cn1 (stereo not given)
    / | 1.6
CCOC(=O)C1C2c3ccccc3C(c3ccccc32)C1C(=O)OCC (stereo not given)
    / | -1.0
O=C1NC(=O)C2(C(=O)N1)C(c1ccccc1Cl)CC(O)CC2c1ccccc1Cl (stereo not given)
    -3 | -1.6
COc1ccc(CCN(C)Cc2ccccc2C)cc1OC
    -5 | 0.6
CC12CNCC(C)(CNC1)C2=O
    41 | /
CC1(C)Cc2nc(N3CCCC3)c(C#N)cc2CS1
    40 | /
CSc1nc(OC(=O)N(C)C)cc(-c2ccccc2)n1
    / | 1.7
CCC(C)N=Cc1c(O)[nH]c(=S)[nH]c1=O (stereo not given)
    / | 0.4
COc1ccc(-c2nn(CCC#N)cc2C(=O)O)cc1OC
    10 | -1.9
CC(C)NC1CCC(C(C)(C)C)CC1 (stereo not given)
    -7 | /
O=S1(=O)CCN(CCc2c[nH]c3ccccc23)CC1
    / | 1.4
CC1CC(C)CN(c2cnn(C34CC5CC(CC(C5)C3C(=O)O)C4)c(=O)c2Cl)C1 (stereo not given)
    22 | /
CCOC(=O)C1=CC(=C2C(=O)N(CC)C(=S)N(CC)C2=O)c2ccccc2O1
    -5 | 9.7
CN(C)CCOC(=O)C1(C#N)CC2c3ccccc3C1c1ccccc12 (stereo not given)
    14 | -1.9
COc1ccc(CN2CCN(Cc3ccccc3C)CC2)cc1
    1 | -2.1
Cc1cccc(NC2=NCC(C)(C)S2)c1
    / | -0.8
CN1CCN(c2ccc(N)cc2)CC1
    -7 | /
CCCn1nc2ccccc2c1P(=O)(N1CCOCC1)N1CCOCC1
    -9 | /
O=C(N1CCC2(CC1)OCCO2)C(F)(F)F
    14 | 4.5
CCN(CC)C(=O)c1ccc(NC(=O)Cc2c[nH]c3ccccc23)cc1
    -3 | /
CCN1C[C@]2(C)CC[C@H](O)[C@@]34C5C[C@@H]6[C@@H](OC)C[C@@](O)(C5[C@H]6O)[C@@H](CC23)[C@@H]14 (stereo not given in full)
    8 | /
CCCC(C)N1C(=O)CC(=O)NC1=S (stereo not given)
    8 | /
CCC(C)N1CCN(Cc2cc(OC)c(OC)cc2OC)CC1 (stereo not given)
    -3 | -3.5
CN(C)c1ccc(/C=C2/C(=O)C3CCN2CC3)cc1
    4 | 0.7
CN1CCN(c2ncc(C#N)c(N)n2)CC1
    / | 3.4
COC(=O)C1=CO[C@H](C)[C@@H]2CN3CCC4(C(=O)Nc5ccccc54)C3C[C@H]12 (stereo not given in full)
    -1 | 0.6
O=c1c2ccccc2nc(CN2CCOCC2)n1-c1ccccc1F
    -2 | -2.3
O=C1NC(=O)C2C3C=CC(O3)C12 (stereo not given)
    6 | 9.1
CCN1CCN(c2nc3ccccc3s2)CC1
    4 | /
CCN(CC)P(=S)(N(CC)CC)N(CC)CC
    7 | -1.8

One compound at a time, from the list above. Order of screens: S aureus helic | MgrA-DNA mod
CCN1CCN(c2nc3ccccc3s2)CC1 is entered as 4 | /
CC1CC(C)CN(c2cnn(C34CC5CC(CC(C5)C3C(=O)O)C4)c(=O)c2Cl)C1 (stereo not given) is entered as 22 | /
CCN(CC)C(=O)c1ccc(NC(=O)Cc2c[nH]c3ccccc23)cc1 is entered as -3 | /
CCN1C[C@]2(C)CC[C@H](O)[C@@]34C5C[C@@H]6[C@@H](OC)C[C@@](O)(C5[C@H]6O)[C@@H](CC23)[C@@H]14 (stereo not given in full) is entered as 8 | /

Carrying on.
The line under a structure holds: S aureus helic | MgrA-DNA mod
CC(Cc1cccs1)NCc1ccccc1 (stereo not given)
    -10 | /
COc1ccc(C[C@@H]2NC[C@@H](O)[C@@H]2OC(C)=O)cc1
    / | 3.5
O=C1C2CN3CN(C2)CC1(c1ccccc1)C3
    -5 | -2.2
O=C(c1ccc2c(c1)N(Cc1ccccc1)CCS2)N1CCC2(CC1)OCCO2
    -2 | 0.5
O=C1CCN(C(=O)c2ccc3ccccc3n2)CC1
    -6 | /
CCN(CC)CC#N
    1 | /
CCN1CCN(Cc2ccc(N)cc2)CC1
    -3 | 0.5

From PubChem BioAssay
